RGS16-Gao = RGS16-Galphao interaction regulator (human). O15492+P09471. bead-based flow cytometry RGS16-Galphao binding, fluorescence; actives lie on both sides. binding response (% of control), % at 10 µM. actives 0.38% (n = 220,000). AID 1441;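 active means below 25% or above 175%, edge rows of some plates excepted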;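 further: Galphao activated by GDP with aluminum fluoride before binding; 100% = wells without compound and 0% = beads without RGS; some results beyond the cut were filed as inactive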
Target sequence (O15492 whole entry, looked up): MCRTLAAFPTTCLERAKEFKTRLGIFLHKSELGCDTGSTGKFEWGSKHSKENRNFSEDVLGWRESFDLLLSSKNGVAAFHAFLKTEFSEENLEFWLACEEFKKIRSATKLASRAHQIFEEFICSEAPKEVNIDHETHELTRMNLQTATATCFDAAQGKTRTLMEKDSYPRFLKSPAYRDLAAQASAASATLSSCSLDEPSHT
Target sequence (P09471 whole entry, looked up): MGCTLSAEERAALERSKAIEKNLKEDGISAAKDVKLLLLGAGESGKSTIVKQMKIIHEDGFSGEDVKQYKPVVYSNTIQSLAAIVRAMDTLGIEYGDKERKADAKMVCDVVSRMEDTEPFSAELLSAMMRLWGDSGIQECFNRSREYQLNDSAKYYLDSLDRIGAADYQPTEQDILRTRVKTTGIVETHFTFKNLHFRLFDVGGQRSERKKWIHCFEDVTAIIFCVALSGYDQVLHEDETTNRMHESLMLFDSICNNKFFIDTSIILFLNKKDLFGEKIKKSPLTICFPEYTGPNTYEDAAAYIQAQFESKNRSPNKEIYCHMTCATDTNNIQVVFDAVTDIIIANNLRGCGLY
PKD1 kinase inh = PKD1 (human) kinase inhibition; Q15139; PKD1 kinase fluorescence polarization assay; inhibition, %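 (about 10 µM by stock and volumes)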; actives 0.056% (n = 200,000); AID 797;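 active means inhibition of 50% or more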;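 further: controls were vehicle for no effect and a reference inhibitor for full effect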
HSV augment = HSV replication enhancement; HSV replication augmentation in cells, fold increase; maximum fold increase; actives 0.005% (n = 220,000);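 active means peak rise of 1.5-fold or more in the series; inconclusive means self-fluorescent or not available for retest; tested in PC3 cells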;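 further: first round at 10 µM; read as green reporter fluorescence; hits show the peak of a series up to 25 µM; 1 = signal of infected wells without compound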
GALR2 ag = GALR2 (human) receptor agonism | activation, %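 (tested at 5 µM)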 | AID 803 | actives 0.48% (n = 140,000) | O43603 | GALR2-expressing cells, agonist activation read-out;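 active means above mean plus 3 SD of all compounds, about 5% in these data, not always enough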;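 further: 0% = vehicle buffer wells and 100% = reference agonist at full effect; tested in CHO reporter cells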
Target sequence (O43603 whole entry, looked up): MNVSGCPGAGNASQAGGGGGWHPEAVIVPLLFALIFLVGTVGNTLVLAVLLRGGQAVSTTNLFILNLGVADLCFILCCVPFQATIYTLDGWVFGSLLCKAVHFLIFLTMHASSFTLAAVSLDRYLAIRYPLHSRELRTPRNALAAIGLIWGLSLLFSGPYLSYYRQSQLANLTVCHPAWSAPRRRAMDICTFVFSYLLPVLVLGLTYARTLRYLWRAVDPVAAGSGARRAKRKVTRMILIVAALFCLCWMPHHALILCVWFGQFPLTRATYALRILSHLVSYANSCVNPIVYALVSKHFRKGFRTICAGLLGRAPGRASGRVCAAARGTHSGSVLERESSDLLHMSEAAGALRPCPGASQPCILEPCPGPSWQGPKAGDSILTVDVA
INS promoter inh = TRM-6 insulin promoter activity inhibition; TRM-6 cells (human fetal islet line), insulin promoter-eGFP reporter, imaging; reporter expression induced with tamoxifen; inhibition, % at 2 µM; actives 0.9% (n = 130,000); AID 1273;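 active means inhibition above the mean plus 3 SD, with well images judged a real hit on visual review, cut at about 60% in these data, passing the limit was not always enough; inconclusive means inhibition over the cutoff but images rejected on review; inactive means inhibition not above the cutoff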
INS promoter inh cell count = also measured in INS promoter inh; calls as there; normalized cell count, %; measured here: cell count, toxicity; reference of the scale not given here;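 cells exposed to compound for 48 h; stained nuclei by imaging scaled within each plate; lower means fewer cells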
HSV augment primary fold = recorded beside HSV augment, whose call it bears; fold increase; compound at 10 µM; measured here: primary screen fold increase 10 uM; tested in PC3 cells;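 GFP signal in the first replicate; 1 = infected wells without compound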
An asterisk follows results filed as active; i = inactive; ? = inconclusive; nt = no result given.

SMILES	RGS16-Gao	PKD1 kinase inh	HSV augment	HSV augment primary fold	GALR2 ag	INS promoter inh	INS promoter inh cell count
CC(C)c1cc(C(=O)N2CCCC(C(=O)c3ccc4ccccc4c3)C2)on1 (centres undefined)	102	0	i	1.2	nt	nt	nt
COc1ccccc1Cc1noc(C(C)(C)NC(=O)c2ccccc2)n1	106	-4	i	0.99	-1.8	nt	nt
O=C(O)c1ccc(-n2c(O)c(C=C3N=c4ccccc4=N3)sc2=S)cc1	103	nt	i	1.3	nt	nt	nt
COc1ccccc1N(C)S(=O)(=O)c1ccc(Cl)c(C(=O)NC2=NCCS2)c1	147	1	i	1	nt	-80	47
O=C(Cc1ccc(Cl)cc1)c1ccc(O)cc1	99	nt	i	0.75	nt	nt	nt
O=C(c1ccc(Cl)c(S(=O)(=O)N2CCOCC2)c1)N1CCN(Cc2ccccc2)CC1	42	-1	i	0.87	-0.5	-311	57
COc1cc(CCC(=O)Nc2nnc(-c3cccnc3)s2)cc(OC)c1OC	104	-3	i	0.99	nt	-21	137
CC1(C)CC(=O)C2=C(C1)c1c(ccc3ncccc13)NC2c1cccs1 (centres undefined)	99	1	i	0.8	0.0	-40	124
CCC(C)(C)NC(=O)C1CCN(c2nc(OC)nc(OC)n2)CC1	90	-7	i	0.96	nt	nt	nt
CCOC(=O)c1ccc(-n2c(N)c(C(=O)NCC3CCCO3)sc2=S)cc1 (centres undefined)	86	7	i	0.84	-0.2	26	65
CC1CCc2c(C(=O)NCc3cccnc3)csc2C1 (centres undefined)	105	-1	i	0.89	0.0	-18	80
CCOC(=O)c1c(-c2ccc(C)cc2)csc1/N=C/N(C)C	43	-3	i	0.85	nt	-78	46
COC(=O)[C@@H](NC(=O)Nc1ccc(S(N)(=O)=O)cc1)C(C)C	85	6	i	0.99	-1.3	-43	88
CCOC(=O)CSc1nnc(CNC(=O)c2ccc([N+](=O)[O-])cc2)n1C	103	2	i	1.1	nt	nt	nt
CC(C)CC1(C(=O)NCc2cc(F)cc(C(F)(F)F)c2)C=CCN1C(=O)c1ccccc1 (centres undefined)	104	-1	i	0.98	-0.2	-152	113
Cc1ccc(CNc2oc(C)nc2C#N)cc1	105	-8	i	0.98	-2.3	59	60
CCc1nc2ccccc2c(=O)n1NCCc1ccccc1	36	-10	nt	nt	-0.3	-25	86
COc1ccc2oc(C(=O)NCCC(C)C)c(C)c2c1	103	0	i	0.95	nt	nt	nt
Cc1cc(-n2c(C)cc(C(=O)CN3C(=O)NC4(CCCCC4)C3=O)c2C)no1	139	1	i	0.86	-0.9	nt	nt
C=CCNC(=S)NNC(=O)C(CCC(C)C)CC(C)(C)O (centres undefined)	106	-6	i	0.97	-1.2	-17	106
Cc1ccc(CSc2nnc(CS(=O)Cc3ccc(Cl)cc3Cl)n2C)cc1 (centres undefined)	105	11	i	1.4	-2.4	-41	35
CCOCCCNC(=S)N1CCCN(c2nc3cc(C)cc(C)c3cc2C#N)CC1	105	-2	i	0.85	nt	-33	137
Brc1ccc(-c2csc(/N=C/N3CCOCC3)n2)cc1	103	-1	i	0.98	-0.1	22	84
O=C(Nc1cc(Cl)cc(Cl)c1)C(NCCCO)c1ccccc1 (centres undefined)	98	-4	i	0.82	nt	nt	nt
Cc1ccc(C(=O)Nc2nc(C(C)(C)C)cs2)s1	103	-9	i	0.86	-0.8	-66	70

A draw from above in order of number of heavy atoms, largest number first:
SMILES	RGS16-Gao	PKD1 kinase inh	HSV augment	HSV augment primary fold	GALR2 ag	INS promoter inh	INS promoter inh cell count
O=C(c1ccc(Cl)c(S(=O)(=O)N2CCOCC2)c1)N1CCN(Cc2ccccc2)CC1	42	-1	i	0.87	-0.5	-311	57
CC(C)c1cc(C(=O)N2CCCC(C(=O)c3ccc4ccccc4c3)C2)on1 (centres undefined)	102	0	i	1.2	nt	nt	nt
Cc1ccc(CSc2nnc(CS(=O)Cc3ccc(Cl)cc3Cl)n2C)cc1 (centres undefined)	105	11	i	1.4	-2.4	-41	35
COc1ccccc1Cc1noc(C(C)(C)NC(=O)c2ccccc2)n1	106	-4	i	0.99	-1.8	nt	nt
Brc1ccc(-c2csc(/N=C/N3CCOCC3)n2)cc1	103	-1	i	0.98	-0.1	22	84

(list continues)
SMILES	RGS16-Gao	PKD1 kinase inh	HSV augment	HSV augment primary fold	GALR2 ag	INS promoter inh	INS promoter inh cell count
O=C(CCc1ccccc1)NCC(=O)N/N=C/c1ccc2c(c1)OCO2	104	-7	i	1.1	-1.1	nt	nt
Cc1nnc(C)n1/N=C/c1cc2ccccc2nc1Cl	105	-5	i	0.88	nt	nt	nt
O=C(Nc1ccc(Cl)cc1)N(Cc1cccnc1)Cc1ccco1	66	-4	i	1.1	-1.1	11	93
CCCCC1=CC2=C(c3ccco3)C(=O)C(C)(OC(=O)c3ccc(OC)cc3)C(=O)C2=CN1Cc1ccco1 (centres undefined)	97	nt	i	1.1	nt	nt	nt
COc1ccc(NS(=O)(=O)c2cc(NC(=O)/C=C/c3cc(OC)ccc3OC)ccc2N2CCCCC2)cc1	101	-1	i	0.92	-0.9	31	133
CC1(C)CNC(=O)c2sc(NC(=O)CN3CCOCC3)nc2C1	100	-5	i	0.83	-1.9	0	115
Cc1nc(CS(=O)(=O)c2ccc(Cl)cc2)sc1C(=O)O	98	nt	i	1	nt	nt	nt
COc1cc2c(OC(C)=O)c3c(c(-c4ccc5c(c4)OCO5)c2cc1OC)C(=O)OC3	94	-3	i	0.56	nt	nt	nt
CCCCN1C(=O)CCC(C(=O)O)C1c1ccccc1 (centres undefined)	96	3	i	1.1	-0.6	-54	38
O=C(Nc1ccccc1)NC1CS(=O)(=O)CC1O (centres undefined)	79	-8	i	0.87	-2.2	65	55
CCOC(=O)C1(Cc2ccccc2C)CCCN(Cc2cn(C)nc2C)C1 (centres undefined)	108	-1	i	0.97	nt	nt	nt
COCCCNCCCOc1ccc(Cl)cc1Br	100	-7	i	0.68	-1.1	-30	110
COc1ccc(C)cc1NC(=O)CN1C(=O)c2ccccc2S1(=O)=O	100	-2	i	0.9	nt	nt	nt
COC(=O)[C@H]1C2CCC(C(=O)OC)(CC2)[C@H]1C(=O)OC	108	-4	i	1	-2.4	-230	103
O=C1CC(N2CCN(S(=O)(=O)c3ccccc3)CC2)C(=O)N1c1ccccc1 (centres undefined)	98	nt	i	1.2	nt	nt	nt
CC(C)c1cc(C(=O)NCCc2ccccc2)no1	95	-7	i	1.1	nt	33	112
Cc1ccc([N+](=O)[O-])c(C(=O)N/N=C/c2cccnc2)c1	100	nt	i	0.94	nt	nt	nt
O=C(O)Cc1ccc(Nc2cnn(C34CC5CC(CC(CC(=O)O)(C5)C3)C4)c(=O)c2Cl)cc1	96	nt	i	1.1	nt	nt	nt
CN(C)C(=O)c1cc(F)ccc1Sc1cc(Cl)ccc1Cl	111	-5	i	0.94	-1.3	3	117
COc1ccc(C(=O)CSc2nnc(C3CC3)n2N)cc1	97	-4	i	1	21*	-50	79
CCOC(=O)C1CCCN(CC(=O)Nc2c(C(=O)OC)[nH]c3ccc(Cl)cc23)C1 (centres undefined)	98	10	i	0.91	-2.3	nt	nt
O=C(NCc1ccco1)c1cc(-c2ccccc2)on1	100	-7	i	1.1	-0.7	48	145
CCOc1ccc(CNC(=O)c2ccco2)cc1	102	15	i	1	nt	23	123
Cc1ccc(C2C(=O)N(C3CCC(C)CC3)CC(=O)N2C2CCCC2)cc1 (centres undefined)	102	5	i	0.98	-0.1	68*	77*
CC1(C(=O)O)C=CCN1C(=O)c1ccccc1 (centres undefined)	104	-4	i	1.1	-1.8	-24	128

The list continues:
SMILES	RGS16-Gao	PKD1 kinase inh	HSV augment	HSV augment primary fold	GALR2 ag	INS promoter inh	INS promoter inh cell count
CCOCCCNC(=O)Cn1nc(-c2ccccc2)ccc1=O	76	-9	nt	nt	-0.1	-50	146
CCOc1ccc(CCNC(=O)C2=C(C)C(=O)OC23CCC(C)CC3)cc1OCC (centres undefined)	112	5	i	0.89	nt	27	86
CC(C(=O)O)n1cc(Cl)cn1 (centres undefined)	104	-3	i	0.76	nt	-33	61
CC(=O)N1[C@H](Cc2ccccc2)C=C[C@]1(C)C(=O)NCCc1c[nH]c2ccccc12	105	0	i	0.78	0.5	-15	140
O=S(=O)(c1ccc(N2CCCC2)nc1)N1CCCC1	100	0	i	0.95	nt	nt	nt
O=C(OCC(=O)N1N=C(c2ccc(Cl)cc2)CC1c1ccco1)c1ccccc1O (centres undefined)	102	0	i	1	0.5	42	89
CCNC(=O)NC(=O)C(C)OC(=O)c1oc2ccc(OC)cc2c1C (centres undefined)	104	-2	i	0.78	-2.5	-5	210
C/C(=N\NC(=O)c1ccc(Cl)c(Cl)c1)c1cccc(NC(=O)C(C)C)c1	102	1	i	0.9	-0.3	nt	nt
O=C(O)c1cc(Cl)c(Cl)cc1C(=O)Nc1cccc2ncccc12	106	2	i	1.5	-0.5	33	146
Clc1cccc(Cl)c1CSc1nnc(-c2ccncc2)s1	102	nt	i	1	nt	nt	nt
COc1ccc(CNC(=O)c2cc(-c3ccncc3)nc3c(C)cc(C)cc23)cc1OC	103	4	i	0.91	nt	nt	nt
N#C/C(=N\Nc1ccc(Cl)c(Cl)c1)C(=O)C1CC1	93	nt	i	0.99	nt	nt	nt
O=C(CNC(=O)c1ccc(-c2ccccc2)cc1)OCc1c(F)cccc1Cl	104	-1	i	0.89	-1.9	-6	60
CC(=O)Nc1ccc(-c2csc(NC=C3C(=O)OC(C)(C)OC3=O)n2)cc1	101	2	i	1	nt	-65	112
CC(=O)NC(=S)Nc1ccccc1N1CCCCC1	109	-8	i	1.1	nt	nt	nt
CCCOc1ccc(NC(=O)C(=O)NCCCn2ccnc2)cc1	100	-6	i	1	-0.8	nt	nt
O=C(CC(NC(=O)c1ccccc1Cl)c1ccccc1)Nc1ccc2c(c1)OCO2 (centres undefined)	97	13	i	0.92	-2.8	-20	65
Cc1ccc(-c2n[nH]c(=S)n2C)cc1	106	-14	i	0.88	-1.0	14	84
COc1cc2nc(CN3CCN(C(c4ccccc4)c4ccccc4)CC3)[nH]c(=O)c2cc1OC	99	nt	i	0.92	nt	nt	nt
Cc1ccc(O)c(-c2cc(-c3cccc(Br)c3)n[nH]2)c1	104	-8	i	0.72	nt	54	88
Cc1ccc(-c2ccc(/C=N\NC(=O)C3C(=O)NCC3c3ccccc3)o2)cc1Cl (centres undefined)	98	-7	i	0.88	-2.5	21	117
Cc1cc(C(=O)OCn2nnc3ccccc3c2=O)c(C)n1-c1ccccc1	99	0	i	0.91	-1.1	-6	102
O=C(Nc1ccc(Br)cc1Cl)Nn1cnnc1	98	-4	i	0.91	-3.4	63	126
O=C(CCNC(=O)c1ccc([N+](=O)[O-])cc1)Nc1nccs1	103	-6	i	1.1	nt	-15	136
Cc1ccc(-c2nnn(CC(=O)N(c3ccccc3F)C(C(=O)NCC3CCCO3)c3c[nH]c4ccccc34)n2)cc1 (centres undefined)	103	1	i	0.85	0.1	-77	74

Continuation:
SMILES	RGS16-Gao	PKD1 kinase inh	HSV augment	HSV augment primary fold	GALR2 ag	INS promoter inh	INS promoter inh cell count
CN(c1ccccc1)S(=O)(=O)c1cccc(C(=O)Nc2nccs2)c1	109	-7	i	0.79	nt	nt	nt
Cc1cccn2c(=O)c3cc(C#N)c(=N)n(Cc4ccncc4)c3nc12	99	-4	nt	nt	0.4	34	100
CC(=O)Oc1ccc(C(=O)Nc2ccc3c(c2)C(=O)N(CCC(=O)O)C3=O)cc1	100	0	i	0.99	0.1	13	99
CC(C)C(OC(=O)c1ccccc1)c1nccc2ccccc12 (centres undefined)	93	nt	i	0.96	nt	nt	nt
Cn1cnnc1SCC(=O)Nc1ccccc1Sc1ccccc1	94	nt	i	1	nt	nt	nt
COc1ccc(C2SCC(C(=O)O)N2C(C)=O)cc1OC (centres undefined)	95	-3	i	1.4	0.0	nt	nt
Cc1[nH]n(-c2ccccc2)c(=O)c1/C=N/N1C(=O)c2ccc3c4c(ccc(c24)C1=O)CC3	90	-7	i	0.82	0.3	9	190
Cc1cccn2c(=O)c(/C=C3\SC(=S)NC3=O)c(NCCCN3CCOCC3)nc12	99	nt	?	nt	nt	nt	nt
CCOc1ccc(/C=C2\SC(=S)N(CCC(=O)O)C2=O)cc1	97	nt	i	0.93	nt	nt	nt
Nc1nc(C2CCCN2S(=O)(=O)c2ccc(Cl)cc2)cs1 (centres undefined)	92	-2	i	1	0.2	nt	nt
CC(=O)N1CCc2cc(C(=O)CN3CCCN(Cc4ccc(F)cc4)C3)ccc21	107	3	i	0.87	-2.3	nt	nt
CC(C)c1ccc(C(CC(=O)c2ccc(Cl)cc2)C(=O)O)cc1 (centres undefined)	95	4	i	0.8	-2.6	-34	50
Cc1sc2nc(-c3ccccn3)[nH]c(=O)c2c1-c1ccccc1	90	-5	i	0.86	nt	nt	nt
